Compound activity from PubChem BioAssay.
Sa helicase inh: blocks Staphylococcus aureus DNA helicase | AID 485395 | inhibition, %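 (tested at about 80 µM)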 | actives 0.05% (n = 120,000) | purified S. aureus helicase, fluorescence unwinding assay; about half of the hits fall short of the stated cut;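 active = both duplicates at 50% or more, or one of them with a favoured structure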;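 note: 0% = mean of negative control wells and 100% = mean of positive control wells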
MgrA DNA FP: modulators of Staphylococcus aureus MgrA DNA binding; fluorescence polarization; inhibition, %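 (about 10 µg/mL by stock and volumes)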; AID 602314; actives 0.13% (n = 84,000);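 active = above 50% in either of two replicates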;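 note: 0% = protein plus DNA without compound and 100% = DNA alone without protein; higher means less MgrA bound to DNA so lower polarization; one replicate is shown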
An asterisk follows results filed as active; / = no result given.

SMILES	Sa helicase inh	MgrA DNA FP
CCOC(=O)CCc1c(C)nc(SCCCn2c(=O)[nH]c3ccccc32)c(C#N)c1C	7	/
COc1ccc(OC)c(CCCc2cc(OC)ccc2OC)c1	/	-1.5
O=C(Nc1ccc2ccccc2c1)C1CCCN(S(=O)(=O)c2ccccc2)C1 (configuration not stated)	-2	/
Cc1cc2c(cc1NC(=O)CC13CC4CC(CC(C4)C1)C3)n(C)c(=O)n2C	6	/
COC(=O)c1sccc1N=CC1=C(O)C(c2ccccc2)CCC1=O (configuration not stated)	/	4.0
N#CCN(CC#N)C(=O)Cc1ccc(Br)cc1	5	2.2
Cc1cccc(S(=O)Cc2ccc(C(=O)N3CCc4ccccc43)o2)c1 (configuration not stated)	-4	/
CCOC(=O)c1cc(C(C)(C)C)[nH]c(=S)c1C#N	/	2.0
O=C(O)c1ccccc1Nc1ccn2c(=O)c3ccccc3nc2n1	21	/
Cc1ccc(S(=O)(=O)CCC(=O)O)cc1C	-1	6.0
CNc1ccc(Br)cc1-c1nc2ccccc2[nH]c1=O	-55	/
O=C(O)CCc1nc2ccccc2c(=O)n1C1CC1	-19	/
COc1ccc(CCNc2nc3c(c(=O)n(C)c(=O)n3C)n2Cc2cccc(F)c2)cc1OC	/	-1.5
CCN(CC)N1CCN(S(=O)(=O)c2ccc(S(=O)(=O)c3ncccn3)cc2)CC1	19	-0.1
C/C(O)=C\c1sc2ccccc2[n+]1C	5	-3.5
CC(Oc1ccccc1)C(=O)Nc1scc2c1c(=O)oc1ccccc12 (configuration not stated)	9	8.2
COC(=O)c1ccc(C2Nc3c(C(=O)OC)cccc3C3C=CCC32)cc1 (configuration not stated)	1	-1.2
O=C(COc1ccc2oc3c(c2c1)CCCC3)Nc1ccccn1	13	-4.5
Cn1c(=S)n(CCSc2nc3ccccc3n2-c2ccccc2)c2ccccc21	-2	-2.0
CC(C)=C1C2C=CC1C1C(=O)N(Cc3cccnc3)C(=O)C21 (configuration not stated)	6	-0.7
COC(=O)C(Cc1ccc(O)cc1)NC(=O)NC12CC3CC(CC(C3)C1)C2 (configuration not stated)	14	0.0
O=C(/C=C/c1ccco1)NNc1ccc2ccccc2n1	-7	/
N#CC(C#N)=CNNc1ncnc2ccsc12	-19	/
O=C(Nc1ccc(OC(F)(F)F)cc1)Nc1ccc(C2=NCCO2)cc1	/	3.1
CCOc1ccc2nc(NC(=O)c3ccccc3F)sc2c1	0	/

A second format for part of the listing above.
N#CC(C#N)=CNNc1ncnc2ccsc12
  Sa helicase inh: -19; MgrA DNA FP: /
COC(=O)C(Cc1ccc(O)cc1)NC(=O)NC12CC3CC(CC(C3)C1)C2 (configuration not stated)
  Sa helicase inh: 14; MgrA DNA FP: 0.0
CCOC(=O)CCc1c(C)nc(SCCCn2c(=O)[nH]c3ccccc32)c(C#N)c1C
  Sa helicase inh: 7; MgrA DNA FP: /

(next part)
SMILES	Sa helicase inh	MgrA DNA FP
Cc1nonc1OCCn1nnc(N)n1	-6	0.7
CC(C)n1c(-c2ccccc2)csc1=Nc1ccccc1	5	0.7
CC[N+]1(C)C2CCC1CC(OC(=O)[C@H]1CCC(C(=O)OC3CC4CCC(C3)[N+]4(C)CC)(c3ccccc3)c3ccccc31)C2 (some centres not stated)	/	-0.7
O=c1oc2c(-c3ccc(Br)cc3)cc(O)cc2s1	-26	0.8
CN(CCNC(=O)c1cc(=O)[nH]c2ccc(S(=O)(=O)N3CCCCC3)cc12)Cc1ccccc1	-2	/
CCN=C(NCC)Nc1ccc(Cl)cc1	/	0.9
CCN(CC)c1nc2c(s1)C(=O)CC(C)(C)C2	-2	/
CC1Cc2ccccc2N1C(=O)c1cccc(COc2ccc(Cl)cc2)c1 (configuration not stated)	4	-1.5
COc1ccc(NC(=O)N(C2CCCCC2)C(C)c2ccco2)c(OC)c1 (configuration not stated)	6	/
CC1(C)CC(=O)C(C=NCCN2CCN(C(=S)Nc3ccccc3)CC2)=C(O)C1	-13	/
COc1ccccc1NC(=O)Cn1c(C(F)(F)F)nc2ccccc21	/	1.3
O=S(=O)(c1cccs1)N1CCCc2cccc(O)c21	5	/
CCOC(=O)c1ccc(S(=O)(=O)N2CCC(C(=O)OCC)CC2)cc1	19	-0.5
Nc1nc(CN2CCN(c3ccccc3)CC2)nc(Nc2ccccc2)n1	2	/
Cc1cc(C)c(C#N)c(N2CCOCC2)n1	/	0.6
COc1ccc(C(C)(C)C)cc1NC(=O)COC(=O)C1CCC1	-19	0.9
Oc1ccc(Cn2cnc3ccccc32)c2cccnc12	-6	/
CC(C)(C)OC(=O)N1C(C(=O)O)CSC1c1cccc(Br)c1 (configuration not stated)	21	-0.3
CCOC(=O)c1sc(=N)n(CC(=O)c2ccc(F)cc2)c1C	5	/
O=C1C(Nc2ccccc2)=CC(c2ccccc2)N1c1ccccc1 (configuration not stated)	6	-1.9
O=C(C1CCN(S(=O)(=O)/C=C/c2ccccc2)CC1)N1CCN(c2ccccn2)CC1	8	/
CCOC(=O)c1ccc(Nc2cc(C)nc(-c3ccccc3)n2)cc1	11	-0.1
COc1ccc(CCNC(=O)CN(C)c2ccccc2)cc1OC	5	/
N#Cc1ccccc1-c1nnn(CC(=O)N/N=C/c2ccc3c(c2)OCO3)n1	27	/
O=c1cc(N2CCOCC2)oc2c(-c3ccccc3)cccc12	/	-0.9

Sorted by count of non-hydrogen atoms (low to high): some entries from above
SMILES	Sa helicase inh	MgrA DNA FP
CCN=C(NCC)Nc1ccc(Cl)cc1	/	0.9
COc1ccc(C(C)(C)C)cc1NC(=O)COC(=O)C1CCC1	-19	0.9
O=C(C1CCN(S(=O)(=O)/C=C/c2ccccc2)CC1)N1CCN(c2ccccn2)CC1	8	/
CN(CCNC(=O)c1cc(=O)[nH]c2ccc(S(=O)(=O)N3CCCCC3)cc12)Cc1ccccc1	-2	/
CC[N+]1(C)C2CCC1CC(OC(=O)[C@H]1CCC(C(=O)OC3CC4CCC(C3)[N+]4(C)CC)(c3ccccc3)c3ccccc31)C2 (some centres not stated)	/	-0.7

More compounds.
SMILES	Sa helicase inh	MgrA DNA FP
Cc1ccc(C)c(NC(=O)C(C)N2C(=O)C3C4C=CC(C4)C3C2=O)c1 (configuration not stated)	14	-2.5
O=C(Cn1cc(S(=O)(=O)N2CCN(c3ccccc3F)CC2)c2ccccc2c1=O)Nc1ccc(Cl)cn1	16	/
Cc1ccc(N2CCNCC2=O)c(C)c1	-2	-2.8
CC(C)CCNCC1OCc2ccccc2CO1	9	-2.8
Cc1cc(C)c(OCC(O)CNC(C)(C)C)c(C)c1 (configuration not stated)	2	-2.1
CCN1CCN(C(=O)c2ccc(S(=O)(=O)N(CC)CC)cc2)CC1	-1	1.0
CCNC(=O)Nc1c(-c2ccccc2)nc2ccccn12	-15	/
Cc1ccc(NC(=O)CSc2n[nH]c(-c3ccc(Br)cc3)n2)cc1	-17	/
Cc1cc(C)cc(NS(=O)(=O)c2c(C)n[nH]c2C)c1	15	/
c1ccc(CSc2n[nH]c(-c3ccncc3)n2)cc1	2	1.6
CC(C)C(NS(=O)(=O)c1ccc2c(c1)OCCO2)C(=O)OCc1nc2ccsc2c(=O)[nH]1 (configuration not stated)	11	/
CC1Cc2ccccc2N1CC(=O)NCc1ccc2c(c1)OCO2 (configuration not stated)	2	/
C=CCSc1nc2c(c(=O)[nH]1)C(c1ccccc1)C(C(=O)OCC)=C(N)O2 (configuration not stated)	12	/
COc1ccc(OC)c(SCC(=O)O)c1	/	-2.9
CCCn1c(=N)c(C(=O)NC2CCCC2)cc2c(=O)n3ccccc3nc21	14	2.0
CCOC(=O)c1cc(-c2ccc(Cl)cc2)[nH]c(=O)c1C#N	/	2.1
Cc1cc(Sc2ccc([N+](=O)[O-])c(O)c2)c(C)cc1Cl	/	-2.8
CN1C=CC=C/C1=C(/C#N)C(=O)Nc1ccc(Cl)cc1	-7	/
CCOc1cccc(CNCC2NCCc3ccccc32)c1O (configuration not stated)	9	/
Cc1ncc2c(c1OC(=O)c1ccccc1)COC(C)(C)OC2	2	1.6
CSc1ccc2c(c1)C(N1CCN(C)CC1)Cc1ccccc1S2 (configuration not stated)	/	-0.1
CCOc1ccc(/C=C(\C#N)C(=O)NCc2ccco2)cc1OC	3	3.1
CN(C)c1ccc(NC(=O)CSc2nc3ccccc3cc2C#N)cc1	-1	2.9
CC(C)(C)OC(=O)N1CCN(CCNC(=O)Nc2cc(Cl)cc(Cl)c2)CC1	-15	/
COc1cc(C(=O)Cc2nccn2C)cc(OC)c1OC	-15	/

Compound profiles, from the list above.
Cc1ncc2c(c1OC(=O)c1ccccc1)COC(C)(C)OC2 is listed with Sa helicase inh: 2; MgrA DNA FP: 1.6
Cc1cc(C)cc(NS(=O)(=O)c2c(C)n[nH]c2C)c1 is listed with Sa helicase inh: 15; MgrA DNA FP: /

The list continues:
SMILES	Sa helicase inh	MgrA DNA FP
CCCCN(C)C(=O)c1c[nH]c2ccc(S(=O)(=O)Nc3ccc(OCC)cc3)cc2c1=O	20	/
CN(C)Cn1nc(-c2ccccc2)n(-c2ccccc2)c1=S	-7	/
Cc1ccc(/C=C2\SC(=S)N(CC(=O)Nc3c(C)n(C)n(-c4ccccc4)c3=O)C2=O)cc1	/	-0.8
COc1ccccc1NC(=O)/C=C/c1cn(CCC#N)nc1-c1ccc(Cl)cc1	-2	/
O=C(CN1CCOCC1)NN1C(=O)c2cccc3cccc(c23)C1=O	1	-2.6
O=C1NCC(COc2ccc(Cl)cc2)O1 (configuration not stated)	-12	/
NC(=O)c1ccsc1NC(=O)C1=COCCO1	11	/
O=C1CCCN2N=C(SCC(=O)NC3CCCCC3)SC2=N1	-1	/
Nc1cc(=O)[nH]c(Nc2ccc(Oc3ccccc3)cc2)n1	-3	-2.9
O=C(CO)Nc1cccc(NC(=O)CO)n1	3	0.9
Cc1ccc2c(=O)c(C(=O)c3ccccc3)coc2c1	7	3.3
N#CCc1ccc(NC2(C#N)CCCC2)cc1	/	-1.3
Cc1ccc(C(=O)NC(=C(Cl)Cl)S(=O)(=O)c2ccc(C)cc2)cc1	20	/
COc1cc2c(cc1OC)C(c1cccs1)N(C(=O)c1cccs1)CC2 (configuration not stated)	8	/
CC(C)NC(=O)Cn1nnc(-c2ccc(Cl)cc2)n1	6	1.8
O=C(Cc1cccs1)NC1CCCCCC1	16	3.8
CN(C)S(=O)(=O)c1ccc(C(=O)Nc2ccc(OCC(=O)N3CCOCC3)cc2)cc1	11	/
C=CCNc1oc(COc2ccc(C)cc2)nc1C#N	3	/
Cc1cc2c(cc1C)CN(c1cccc(C(=O)N/N=C/c3ccco3)c1)C2	8	3.2
O=C(O)c1ccccc1S(=O)c1ccccc1CCO (configuration not stated)	/	-3.1
CN(C)S(=O)(=O)c1cccc(C(=O)C2=C3SC=C(c4ccccc4)N3CC2)c1	-12	/
CC(C)(O)C#Cc1ccccc1C(=O)NC(CC(N)=O)C(=O)O (configuration not stated)	21	1.2
O=C(Nc1cnn(Cc2ccc(F)cc2)c1)c1noc2c1CCCC2	7	/
N#Cc1c(-c2cccs2)cc(-c2cccs2)nc1SCc1cccnc1	-5	3.7
O=C(O)CCC(=O)Nc1ccc2c(c1)oc1ccccc12	15	-13

Rewritten with bars between the fields: part of the list above
SMILES | Sa helicase inh | MgrA DNA FP
O=C1CCCN2N=C(SCC(=O)NC3CCCCC3)SC2=N1 | -1 | /
Nc1cc(=O)[nH]c(Nc2ccc(Oc3ccccc3)cc2)n1 | -3 | -2.9
O=C(CO)Nc1cccc(NC(=O)CO)n1 | 3 | 0.9
Cc1ccc2c(=O)c(C(=O)c3ccccc3)coc2c1 | 7 | 3.3
N#CCc1ccc(NC2(C#N)CCCC2)cc1 | / | -1.3
Cc1ccc(C(=O)NC(=C(Cl)Cl)S(=O)(=O)c2ccc(C)cc2)cc1 | 20 | /

Next section:
SMILES	Sa helicase inh	MgrA DNA FP
NC(=O)Cn1c(CSc2nc3ccccc3n2CC(N)=O)nc2ccccc21	/	-1.3
CCC(=O)Nc1ccc(-c2nnc(C(F)(F)F)o2)cc1C	/	-3.2
O=C1N(c2ccc3c(c2)OCCO3)C(c2ccccc2)C1(F)F (configuration not stated)	-24	0.9
O=C(NC1CCN(Cc2ccccc2)CC1)c1cc(-c2ccccc2)n[nH]1	-14	/
CCn1nnc(NC(=O)C(C)(c2ccccc2)c2ccccc2)n1	6	-2.8
CSc1nc2cc(C)nn2c(-c2ccc(C(C)(C)C)cc2)c1C#N	/	-0.8
O=C(O)CCC(=O)NC1CCCCCCC1	-2	-4.5
CCOC(=O)c1cnn(-c2ccccc2)c1NC(=O)CSc1nc2ccc(OCC)cc2s1	/	-0.1
CCc1ccc(OCCSc2nc(-c3ccco3)nc3cc(=O)[nH]n23)cc1	3	/
COC(=O)c1cc(OC(=O)c2cc(OC)cc(OC)c2)cc(C(=O)OC)c1	-5	/
CC1CCCCC1NC(=O)c1cccc(NC2=NC3CS(=O)(=O)CC3S2)c1 (configuration not stated)	2	/
CCOC(=O)c1ccc(NC(=O)CNC(=O)c2ccc(Cl)cc2)cc1	-12	-0.1
CC1=C(C)C/S(=N\S(=O)(=O)c2ccc(Cl)cc2)N(S(=O)(=O)c2ccc(Cl)cc2)C1 (configuration not stated)	4	2.3
CC(C)(C)OC(=O)N1CCCN(S(=O)(=O)c2cccc(C(F)(F)F)c2)CC1	/	-0.4
O=C1/C(=C/c2ccco2)COC/C1=C\c1ccco1	/	5.4
Cc1ccc(C2=NN(C(=O)CSc3ccccn3)C(c3ccco3)C2)o1 (configuration not stated)	2	/
CCn1c2ccccc2c2cc(NC(=O)c3ccccc3C)ccc21	3	1.8
CCN(c1ccccc1)S(=O)(=O)c1ccc(Cl)nc1	-18	-2.3
COC(=O)c1cccc(NS(=O)(=O)c2cccs2)c1	-4	-3.9
CCNc1nc(OC)nc(N2CCN(c3ccc(F)cc3)CC2)n1	-1	-2.9
Cc1cc2c(cc(C(=O)NCCCN3CCOCC3)n2Cc2ccc(Cl)cc2)o1	16	/
O=C(CSc1nnc2c(n1)[nH]c1ccccc12)Nc1ccccc1	5	-0.2
CCC(c1nnnn1CCOC)N1CCN(c2cccc(C(F)(F)F)c2)CC1 (configuration not stated)	-24	-2.5
O=C1c2oc3ccccc3c(=O)c2C(c2ccc(O)cc2)N1Cc1ccccc1 (configuration not stated)	8	/
Cn1cc(SCC(=O)N2CCCc3ccccc32)c2ccccc21	-10	/

Some of the compounds tested. The share of hits here may be higher or lower than overall.
